miR-21 reporter – raises the signal of a miR-21 reporter. HeLa miR-21 FLuc reporter, luciferase, 48 h. Potency, µM (series often up to 38.3 µM), inactives show top-dose reporter change, positive = more light. 340,000 tested, under 10 active; active = well fitted rising curve with a large enough effect; inconclusive = small, poorly fitted or top-dose-only effect; inactive = no such curve, though single readings can be large or run the other way;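 further: % of control where 0% means no effect; miR-21 action dims this reporter so a rising signal means less miR-21 action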
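HeLa miR-21-FLuc reporter line, endogenous miR-21; 2000 cells/well in DMEM/10% FBS; compound titration up to ~40uM final, 48 h, 37 degree Celsius; luciferase detection reagent, 15 min lysis, CCD luminescence.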
Rango-impB inh – inhibitors of Rango-importin beta complex formation; Rango CFP/YFP FRET sensor + importin beta, 45 min; AID 540263; Potency, µM (doses to about 92.2 µM), for the others: at the top dose inhibition of complex formation; hit rate 0.031% among 340,000; active = rising FRET ratio curve, often small or poorly fitted; inconclusive = mostly compound fluorescence or quenching in the first reads; inactive = flat curves in all reads;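 further: potency means the concentration at half of the fitted maximal effect; 0% = DMSO wells and 100% = buffer wells lacking importin beta; nearly all actives have a fitted effect of over 15% in size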
Target sequence (Q14974 whole entry, looked up): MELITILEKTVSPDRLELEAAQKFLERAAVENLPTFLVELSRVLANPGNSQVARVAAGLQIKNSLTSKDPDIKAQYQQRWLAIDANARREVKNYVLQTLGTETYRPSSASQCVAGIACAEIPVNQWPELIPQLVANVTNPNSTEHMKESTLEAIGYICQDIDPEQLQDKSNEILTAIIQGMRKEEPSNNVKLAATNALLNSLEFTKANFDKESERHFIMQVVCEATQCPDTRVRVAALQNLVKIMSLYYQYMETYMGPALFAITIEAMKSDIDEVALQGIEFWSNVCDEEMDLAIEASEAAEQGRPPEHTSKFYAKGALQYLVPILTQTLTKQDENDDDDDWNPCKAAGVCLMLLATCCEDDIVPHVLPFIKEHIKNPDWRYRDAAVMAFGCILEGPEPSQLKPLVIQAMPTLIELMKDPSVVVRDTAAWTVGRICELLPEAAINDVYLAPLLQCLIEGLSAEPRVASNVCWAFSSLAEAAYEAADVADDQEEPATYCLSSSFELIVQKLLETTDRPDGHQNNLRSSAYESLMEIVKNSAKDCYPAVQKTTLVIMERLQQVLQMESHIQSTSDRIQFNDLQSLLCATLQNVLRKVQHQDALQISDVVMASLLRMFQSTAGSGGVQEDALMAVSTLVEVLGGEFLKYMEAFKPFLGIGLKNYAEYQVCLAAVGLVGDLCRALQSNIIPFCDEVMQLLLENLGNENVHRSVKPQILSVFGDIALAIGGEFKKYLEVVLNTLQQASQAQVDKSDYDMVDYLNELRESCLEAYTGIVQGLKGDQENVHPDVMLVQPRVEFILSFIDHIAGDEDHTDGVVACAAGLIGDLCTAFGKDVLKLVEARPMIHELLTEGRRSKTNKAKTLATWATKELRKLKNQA
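FRET biosensor Rango (snurportin 1 IBB between N-terminal EYFP and C-terminal Cerulean), 50 nM in PBS/1 mM DTT/0.02% Tween-20/0.1% BSA, preincubated 5 min RT with compound; 0.125 microM importin beta added, 45 min RT, CFP/YFP FRET ratio read.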
GLA inh pH 4.5 – inhibitors of human alpha-galactosidase A at pH 4.5; AID 1467; purified enzyme, 4-MU-alpha-Gal fluorescence, pH 4.5; 230,000 tested, under 10 active; activity change, negative = inhibition, % at 105 µM; inconclusive = small, poorly fitted or top-dose-only inhibition, or a rising curve; inactive = flat fitted curve, though single readings scatter; no compound was filed as active;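 further: 0% = full activity with enzyme and -100% = basal without enzyme; dose as in the result columns while the protocol names 77 µM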
Rango dissoc inh – inhibition of RanGTP-driven Rango-importin beta dissociation. AID 540253. Potency, µM (highest dose often 46.1 µM), without a hit: at the top dose activity change, negative = inhibition. hit rate 0.071% among 340,000. Biochemical FRET Rango-importin beta, RanGTP-induced dissociation; active means falling FRET ratio curve, often poorly fitted, with flat reads before Ran was added; inconclusive means other falling curves, or compound fluorescence or quenching; inactive means flat or rising ratio curve;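 further: potency means the concentration at half of the fitted maximal effect; % of control where 0% means no effect; nearly all actives have a fitted effect of over 45% in size; -100% = wells without RanGTP and RCC1; the record marks most hits as doubtful in a second field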
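Rango/importin beta premix (0.1/0.25 uM final), PBS + 1 mM DTT + 0.02% Tween-20 + 0.1% BSA; cpd 5 min RT; FRET pre-read; + RanGTP-RCC1 (0.6 uM Ran, 2 mM GTP, 0.2 uM RCC1); 45 min RT; FRET post-read, ex 430, em 486/530 nm.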
Active calls of the source: *; ? = inconclusive; . = no result given. Not all compounds are listed, so the mix of outcomes need not match the whole.

SMILES | miR-21 reporter | Rango-impB inh | GLA inh pH 4.5 | Rango dissoc inh
O=C(CC(c1ccccc1)C1CCCCC1=O)c1ccccc1 (centres undefined) | . | -0.9% | . | -6.7%
CCOc1nc(CC)nc(NC(=O)NS(=O)(=O)c2ccccc2Cl)n1 | -8.4% | 0.2% | 8.6 | -19.2%
CCn1c(O)c(N=NC(=O)c2ccc(CSc3nncn3C)cc2)c2ccccc21 | -8.6% | 0.8% | -3.9 | 6.1%
O=C(CN1CCN(S(=O)(=O)c2ccc3ccccc3c2)CC1)N1CCc2ccccc2C1 | -8.7% | 3.5% | -6.1 | -6.4%
Cc1noc(C)c1COC(=O)CCCOc1ccc(Cl)cc1Cl | -7.0% | -3.6% | -6.4 | -1.3%
OCC1(CO)COC(CCc2ccccc2)=N1 | 0.7% | 3.6% | . | -9.1%
O=C(NCCN1CCOCC1)/C(=C/c1ccc(F)cc1)NC(=O)c1ccccc1 | 1.0% | 0.1% | . | -6.4%
O=C(Cc1ccc(F)cc1)NC(Cc1c[nH]c2ccccc12)C(=O)O (centres undefined) | 0.0% | -3.1% | . | -12.0%
O=C(NC(=S)Nc1ncccn1)c1ccc(F)cc1 | -46.6% | 0.8% | . | 0.7%
O=C(/C(=C/O)N=Nc1ccccc1)c1ccco1 | 13.9% | 0.8% | -12.4 | 6.3%
Cc1ccc(S(=O)(=O)NCC(=O)OC(C)C(=O)NCc2ccc3c(c2)OCO3)cc1 (centres undefined) | . | 1.1% | . | 1.8%
O=C(Nc1cccc(C(F)(F)F)c1)c1ccc(Cn2cc(Br)cn2)o1 | 22.8% | ? | -5.3 | -16.6%
COc1cccc(-n2ccnc2SCC(=O)Nc2cc(OC)ccc2OC)c1 | -3.7% | -0.2% | -0.3 | -7.5%
CCOCCn1c(CN2CCc3ccccc3C2)nc2c1c(=O)n(C)c(=O)n2C | -0.3% | 1.0% | -7.1 | 0.6%
Cc1ccc2cc(CCNC(=O)c3ccc(Br)o3)c(=O)[nH]c2c1 | 0.3% | -1.8% | -19.6 | 4.8%
c1ccc(-c2nc(-c3nccc4ccccc34)oc2-c2ccccc2)cc1 | -51.5% | -3.1% | ? | -0.7%
COc1ccc(-c2csc(N3C(=O)C4C5c6ccccc6C(c6ccccc65)[C@@H]4C3=O)n2)cc1 (some centres undefined) | -2.6% | 2.1% | -6.6 | 1.2%
CCN1CCN(C(=O)c2cc(COc3ccc4ncccc4c3)on2)CC1 | 14.6% | -1.7% | -5.1 | 6.4%
Cc1ccc(OCCn2ccnc2)c(C)c1 | -2.4% | -0.2% | . | 1.6%
CCCc1nc2oc3c(OC)ncnc3c2c2c1COC(C)(C)C2 | 0.4% | 6.7% | -1.6 | 1.1%
CCOc1ccc(C(=O)NCC(=O)OCC(=O)N(C)CC(=O)Nc2ccccc2CC)cc1OCC | . | -3.6% | . | -4.4%
CCCCOc1ccc(C(=O)NCc2ccncc2)cc1 | 3.7% | -0.5% | -5.0 | -10.5%
Cc1ccn2cc(CCNC(=O)CC(C)(C)C)nc2c1 | -13.1% | -3.4% | -1.5 | 7.7%
CC(C)(C)NC(=O)C(c1ccncc1)N(CC1CCCO1)C(=O)Cn1nnc(-c2ccc(F)cc2)n1 (centres undefined) | 3.1% | -0.2% | -2.2 | 1.8%
COc1ccc(N2CC(C(=O)N[C@@H](CC(C)C)C(=O)NC3CCCC3)CC2=O)cc1 (some centres undefined) | -3.7% | -2.6% | . | -0.2%
CC(=O)Nc1ccc(S(=O)(=O)NCCC(=O)NC2CCCCCC2)cc1 | . | 1.4% | . | -9.3%
Cc1cccc(C2=NN(c3ccccc3)[C@H](CO)[C@H]2c2ccc(Cl)cc2)c1 | . | ? | ? | ?
CC(=O)OC(C(=O)NCS(=O)(=O)c1ccc(C)cc1)c1cccnc1 (centres undefined) | 1.7% | 0.9% | 1.2 | 18.7%
CCN(Cc1ccccc1OC)CC1CCCN(CCc2cccc(OC)c2)C1 (centres undefined) | 3.1% | -0.8% | . | 4.5%
CC12CCC3(CC1CCC1OC12)OCCO3 (centres undefined) | . | -5.5% | . | -1.0%
COCCCn1c(SCc2nnc(-c3ccccc3)o2)nc2sc3c(c2c1=O)CCC3 | -7.3% | -0.9% | -2.8 | 1.2%
O=C(O)C1CC(=O)N(c2ccc(Br)cc2)C1 (centres undefined) | -0.6% | -0.3% | -18.6 | -6.5%
CCN(CC)c1ccc(N2C(=O)/C(=C\c3cccnc3)SC2=S)cc1 | 0.1% | -2.4% | 6.0 | 0.7%
Cc1ccccc1C(=O)c1c[nH]c(C(=O)NCCCn2ccnc2)c1 | -2.8% | -3.7% | 1.2 | 4.6%
CCCCNC(=O)NNC(=O)COc1cccc(C)c1C | -1.5% | 3.1% | 4.7 | 21.5%
CC[C@@H](C(=O)n1nc(C)cc1C)[C@H](NS(=O)(=O)c1ccc(C)cc1)c1ccccc1 | -0.5% | -0.1% | -5.7 | 18.9%
COc1ccc(C2C(=O)N(C3CCCCC3)CC(=O)N2CCc2ccccc2)cc1OC (centres undefined) | -12.8% | -2.4% | -15.5 | -12.0%
CC1(C)Cc2nc3sc(C(N)=O)c(N)c3cc2CO1 | -31.4% | -3.9% | -2.1 | -7.3%
Cc1ccc(-n2nnnc2SCn2nnc3ccccc3c2=O)cc1 | -45.2% | -0.7% | 6.5 | 6.4%
Cc1cc2cc(CNC(=O)c3cccc([N+](=O)[O-])c3)ccc2[nH]1 | -4.2% | -0.5% | -6.1 | -0.8%
CCn1c(CN2CCOCC2)nnc1SCC(=O)Nc1ccc(C(C)=O)cc1 | -0.2% | -0.3% | . | 1.8%
COCCn1nnnc1C(c1cccs1)N1CCN(c2ccccc2)CC1 (centres undefined) | -1.9% | 0.7% | -2.0 | -1.1%
O=C(NN1C(=O)C2C3C=CC(C3)C2C1=O)c1ccccc1 (centres undefined) | -1.5% | -5.1% | 3.4 | 14.4%
Cc1ccc(SCc2[nH]nc3c2C(c2cccnc2)C(C#N)=C(N)O3)cc1 (centres undefined) | 1.9% | -4.1% | -1.8 | 13.2%
O=C1CN(S(=O)(=O)c2cc(C(F)(F)F)ccc2Cl)CCN1 | . | -0.1% | . | 4.4%
CCn1c(-c2cccn(Cc3ccccc3)c2=O)n[nH]c1=S | -1.5% | 0.0% | 2.3 | 2.9%
CCc1ccc(NC(=O)CC2C(=O)N(c3cccc(C)c3)C(=O)N2C2CC2)cc1 (centres undefined) | 9.6% | 0.1% | 11.0 | -10.4%
CCN1C(=O)[C@H]2[C@@H](c3ccc(OC)cc3)N3C(=O)CN(CCOC)C(=O)[C@@]3(Cc3ccccc3)[C@H]2C1=O | 0.2% | 4.3% | . | -7.8%
O=[N+]([O-])c1cc(Br)cc(C=Nc2ccc3c(c2)OCO3)c1O | -7.2% | -0.8% | -7.5 | ?
O=C(OCC(=O)N1CCN(c2ccccc2)CC1)c1ccc(Cl)nc1 | . | -3.1% | . | 19.0%
COc1cc(OC)cc(-c2nnc(SCC(=O)Nc3cccc(C(=O)O)c3)s2)c1 | -7.5% | -2.2% | -8.9 | -13.0%
COc1ccc(CC(=O)Nc2cc(S(=O)(=O)Nc3ccc(OC)cc3)ccc2OC)cc1 | . | 0.2% | . | -1.4%
COC(=O)c1sccc1NC(=S)Nc1cc(OC)ccc1OC | 1.5% | -0.8% | -5.3 | -13.1%
NS(=O)(=O)c1ccc(CCNC(=O)NC23CC4CC(CC(C4)C2)C3)cc1 | -8.6% | -1.2% | 4.2 | 2.0%
Cc1sc2nc(SCc3nnc(-c4cccs4)o3)n(C3CCCC3)c(=O)c2c1C | -2.8% | 1.8% | -12.5 | -9.8%
Cc1ccccc1NC(=O)CN1C(=O)CSc2ccc(S(=O)(=O)N3CCCC3)cc21 | -6.7% | -2.3% | . | ?
O=C1CSc2ccc(C(=O)NCc3ccccn3)cc2N1 | . | 2.7% | . | 28.0%
CCn1c2ccc(C)cc2c2n[nH]c(=S)nc21 | -14.0% | 0.8% | . | -15.6%
COc1cccc(/C=C/C(=O)OCC(=O)NC(=O)NC2CCCCC2)c1 | . | -4.1% | . | 12.4%
O=C(N=C1SC2CS(=O)(=O)CC2N1CCc1ccccc1)C1CC1 (centres undefined) | -11.7% | 0.0% | . | 17.2%

Next compounds
SMILES | miR-21 reporter | Rango-impB inh | GLA inh pH 4.5 | Rango dissoc inh
CCC(C)Cn1cnc2c(SCc3ccccc3F)nc(N)nc21 (centres undefined) | . | -0.6% | . | -3.4%
CCOc1ccc(N2C(=O)CS/C2=C(\C(Cl)=C(Cl)Cl)[N+](=O)[O-])cc1 | 2.0% | 2.0% | -0.2 | -8.2%
O=C(CCc1ccc(O)cc1)NNC(=S)NCCc1ccccc1 | -8.9% | 1.9% | 6.2 | 0.2%
CNc1ccc(C(=O)N2CCN(S(=O)(=O)c3ccc4c(c3)OCCCO4)CC2)cc1[N+](=O)[O-] | -3.6% | -1.2% | . | -9.2%
O=C(COC(=O)c1ccccc1O)NNC(=O)c1ccc(Br)cc1 | . | -0.1% | . | 0.0%
Cc1cc(C)nc(-n2nc(C)cc2NC(=O)C(C)C)n1 | 6.2% | -1.6% | 10.0 | -2.1%
COc1ccc(NC(=O)C2CCN(C(=O)c3ccco3)CC2)c(OC)c1 | 0.2% | 0.1% | . | 20.3%
O=C(COC(=O)CCNS(=O)(=O)c1ccccc1)NC1CC1 | . | -5.0% | . | -14.0%
O=C(NC1CCCC1)C1CCN(C(=O)NCc2ccccc2)CC1 | 0.3% | 0.2% | -0.4 | -2.2%
COc1ccccc1NC(=S)c1ccccc1 | -25.4% | 1.1% | -1.5 | 18.7%

Whole records, looked up by structure. Screens in order: miR-21 reporter | Rango-impB inh | GLA inh pH 4.5 | Rango dissoc inh
Entry for CCN(Cc1ccccc1OC)CC1CCCN(CCc2cccc(OC)c2)C1 (centres undefined) → 3.1% | -0.8% | . | 4.5%
Entry for CCOc1nc(CC)nc(NC(=O)NS(=O)(=O)c2ccccc2Cl)n1 → -8.4% | 0.2% | 8.6 | -19.2%
Entry for COc1ccc(CC(=O)Nc2cc(S(=O)(=O)Nc3ccc(OC)cc3)ccc2OC)cc1 → . | 0.2% | . | -1.4%

Entries above that contain two or more sulfur atoms, in the order listed:
SMILES | miR-21 reporter | Rango-impB inh | GLA inh pH 4.5 | Rango dissoc inh
COCCCn1c(SCc2nnc(-c3ccccc3)o2)nc2sc3c(c2c1=O)CCC3 | -7.3% | -0.9% | -2.8 | 1.2%
CCN(CC)c1ccc(N2C(=O)/C(=C\c3cccnc3)SC2=S)cc1 | 0.1% | -2.4% | 6.0 | 0.7%
COc1cc(OC)cc(-c2nnc(SCC(=O)Nc3cccc(C(=O)O)c3)s2)c1 | -7.5% | -2.2% | -8.9 | -13.0%
COC(=O)c1sccc1NC(=S)Nc1cc(OC)ccc1OC | 1.5% | -0.8% | -5.3 | -13.1%
Cc1sc2nc(SCc3nnc(-c4cccs4)o3)n(C3CCCC3)c(=O)c2c1C | -2.8% | 1.8% | -12.5 | -9.8%
Cc1ccccc1NC(=O)CN1C(=O)CSc2ccc(S(=O)(=O)N3CCCC3)cc21 | -6.7% | -2.3% | . | ?
O=C(N=C1SC2CS(=O)(=O)CC2N1CCc1ccccc1)C1CC1 (centres undefined) | -11.7% | 0.0% | . | 17.2%

High-throughput results: PubChem, National Center for Advancing Translational Sciences (NCATS)
